Screening results deposited in PubChem BioAssay by National Center for Advancing Translational Sciences (NCATS).
Vaccinia mCherry = vaccinia inhibition (mCherry reporter). Vaccinia virus mCherry reporter infection, fluorescence; about a quarter of the inactives have no number. Potency, µM (titrated, usually from 36.5 µM), without a hit: top-dose activity change, negative = inhibition, usual class: inhibitors. 310,000 compounds, 0.63% hits; active = well fitted inhibition curve with a large enough effect; inconclusive = small, poorly fitted or top-dose-only effect; inactive = no such curve, though single readings can be large or run the other way; tested in A549 cells; further: nearly all actives have a fitted effect of over 35% in size; inactives centre near -10
Vaccinia Venus = inhibitors of vaccinia virus (Venus reporter). Potency, µM (highest dose often 36.5 µM), without a hit: top-dose activity change, negative = inhibition, most hits filed as inhibitors. AID 720580. Vaccinia virus Venus reporter expression, fluorescence. 330,000 compounds, 0.46% hits; active means well fitted inhibition curve with a large enough effect; inconclusive means small, poorly fitted or top-dose-only effect; inactive means no such curve, though single readings can be large or run the other way; tested in A549 cells; further: nearly all actives have a fitted effect of over 30% in size; inactives centre near -10
Numbers without * were called inactive; i = inactive; ? = inconclusive; / = not tested or not shown; & = joins results of further samples; [ ] = dose if it differs, or a comment. On the % scale 0 is the no-effect control and ±100 the full control effect; potency means the concentration at half of the fitted maximal effect. Rows were taken by chance, and some 0.86% of all compounds hit somewhere here.

Start of the listing, in advance, two compounds:
Values in the order – Vaccinia mCherry	Vaccinia Venus
Cc1ccc(Sc2ncnc3onc(C)c23)cc1
  -12%	-14%
CCN(CC)S(=O)(=O)c1cccc(C(=O)N[C@H](C(=O)OCC(=O)NC(=O)NC)C(C)C)c1
  -19%	-14%

The listing, from the first entry:
Values in the order – Vaccinia mCherry	Vaccinia Venus
Cc1ccc(Sc2ncnc3onc(C)c23)cc1
  -12%	-14%
CCN(CC)S(=O)(=O)c1cccc(C(=O)N[C@H](C(=O)OCC(=O)NC(=O)NC)C(C)C)c1
  -19%	-14%
COc1ccc(S(=O)(=O)N2CCN(C(=O)c3cnc(C)cn3)CC2)cc1
  i	-13%
CCOc1ccccc1OCC(=O)Nc1cc2c(cc1C(=O)O)OCCCO2
  -5%	-9%
O=c1c([N+](=O)[O-])c(NC2CCCCC2)c2ccccc2n1-c1ccccc1
  -8%	-8%
Fc1ccc(-c2nc(-c3cnccn3)no2)c(Cl)c1
  -3%[7.34 µM]	-11%[7.34 µM]
CCc1ccc(CNC(=O)c2ccc(CSc3nc4ccncc4n3Cc3ccccc3)cc2)cc1
  -2%	-25%
COc1ccc(-c2nc3ccccc3c(=O)n2CCN2CCOCC2)cc1
  i	-16%
COc1ccc(NC(=O)c2nc3nccc(C)n3n2)cn1
  i	-17%
COc1ccc(N2CCN(C(c3nnnn3C3CCCC3)C(C)C)CC2)cc1 (stereo not drawn)
  -9%	-7%
COc1cc2c(cc1OC)CN(C(C)C(=O)N1CCc3ccccc31)CC2 (stereo not drawn)
  /	?
CCn1ncc(C(=O)Nc2ccc(S(=O)(=O)N3CCCC3)cc2)c1C
  /	-7%
CCCC(=O)N(Cc1cc2ccccc2[nH]c1=O)c1ccccc1OC
  0%	-5%
CCCCN(Cc1ccccc1)S(=O)(=O)c1cc2c(cc1Br)CC(C)N2C(C)=O (stereo not drawn)
  ?	?
CS(=O)(=O)Nc1ccc(C(=O)N2CCc3ccccc3C2)cc1
  -7%	-3%
CCCCn1c(N)c(N(CCC(C)C)C(=O)c2[nH]c(C)c(C(=O)OCC)c2C)c(=O)[nH]c1=O
  i	-16%
COc1ccc(CNc2cccc(C)n2)c(O)c1
  -1%	-7%
CCN(c1ccccc1)S(=O)(=O)c1ccc(Cl)c(NC(=O)CSc2ncn[nH]2)c1
  i	-13%
Nc1nc(N)nc(-c2ccc(Cl)c(Cl)c2)n1
  ?	?
O=C(O)c1ccccc1C(=O)N1CCc2c([nH]c3ccccc23)C1C(F)(F)F (stereo not drawn)
  -3%	12%

In the list so far, 3 contain a Cl atom.
Values in the order – Vaccinia mCherry	Vaccinia Venus
Fc1ccc(-c2nc(-c3cnccn3)no2)c(Cl)c1
  -3%[7.34 µM]	-11%[7.34 µM]
CCN(c1ccccc1)S(=O)(=O)c1ccc(Cl)c(NC(=O)CSc2ncn[nH]2)c1
  i	-13%
Nc1nc(N)nc(-c2ccc(Cl)c(Cl)c2)n1
  ?	?

(more compounds)
Values in the order – Vaccinia mCherry	Vaccinia Venus
COc1ccc(CNC(=O)Nc2cn(CC(C)C)c(=O)c3ccccc23)cc1
  10%	1%
C[C@@H]1COC(=O)[C@@H](CC(=O)OC(C)(C)C)C/C=C\C[C@@H](CC(=O)N(CCO)Cc2ccccc2)C(=O)N1
  i	-9%
COCCNc1nc(C)cc(-c2cc(C(=O)NCc3ccccc3)on2)n1
  -14%	-15%
COc1cc(Br)c(CC(=O)NC2CC2)cc1OC
  11%	3%
Cc1c(C(=O)OCC2CCCCC2)[nH]c2c1C(=O)CC(c1ccccc1Cl)C2 (stereo not drawn)
  -18%	-21%
Cc1cc(Br)ccc1OCCCCN1CCC(C)CC1
  -2%	-15%
COc1ccc(NC(=O)Cc2nnc(N)s2)cc1
  -5%	-3%
Cc1cccc(NS(=O)(=O)c2c(C(=O)N3CCOCC3)c(C)n(C)c2C)c1C
  -19%	-4%
COC(=O)c1sc(-c2ccc(Cl)cc2)cc1NC(=O)/C=C/C(=O)O
  -24%	-12%
CCc1cccc(C)c1NC(=O)COC(=O)c1c2c(nc3ccccc13)/C(=C\c1cccs1)CCC2
  -16%	-22%
Cc1cccc(/C=C(\C#N)C(=O)Nc2ccccn2)c1
  -12%	-1%
N#Cc1c(NC(=O)C2CCCO2)sc2c1CCCCC2 (stereo not drawn)
  -11%	-10%
Cc1cc(C)nc(N(C#N)S(=O)(=O)c2ccccc2)n1
  /	-6%
CCn1c(=O)c(C(=O)Nc2ccc(C)cc2C)c(O)c2ccccc21
  i	-8%
CCCCCOc1ccc(/C=C/C(=O)Nc2sc(C)c(C)c2C(=O)OCC)cc1OC
  -7%	-19%
CC(C)NC(=O)CSc1c2c(nc3ccccc13)CCCC2
  -8%	-17%
CC(Oc1cccc(Cl)c1)C(=O)Nc1ccccc1N1CCCC1 (stereo not drawn)
  -11%	-17%
Cc1ccc(NC(=O)C2CCCN(S(=O)(=O)c3c(C)n[nH]c3C)C2)c(C)c1 (stereo not drawn)
  -12%	-6%
COc1ccccc1C1c2c(C)nn(-c3ccccc3)c2NC(=O)C1NC(=O)c1ccccc1 (stereo not drawn)
  -4%	-2%
COc1ccccc1C(=O)NN1C(=O)C2C3C=CC(O3)C2C1=O (stereo not drawn)
  /	-1%

(further entries)
Values in the order – Vaccinia mCherry	Vaccinia Venus
COc1ccc(C(c2nnnn2C2CCCCC2)N2CCN(C)CC2)c(OC)c1 (stereo not drawn)
  -3%	-11%
COc1ccc(S(=O)(=O)N2CCN(C)CC2)cc1C(=O)N1CCCCC1
  -2%	-3%
CCOc1ccc(/C=C2/SC(=S)N(C(C(=O)O)c3ccccc3)C2=O)cc1OCC (stereo not drawn)
  -13%	25%
COc1ccc(-n2nc(C(=O)N(C)c3cccc(C(F)(F)F)c3)c3c4ccccc4n(C)c3c2=O)cc1
  -5%	0%
CC1CC(C)CN(C(=O)Cn2c(-c3nonc3N)nc3ccccc32)C1 (stereo not drawn)
  -16%	-5%
CCNC(=O)NC(=O)C(C)OC(=O)c1ccc(-n2nc(SC)sc2=S)cc1 (stereo not drawn)
  -12%	-7%
COc1ccc(C2CC(C(F)(F)F)n3nc(C(=O)NCc4c(C)nn(C)c4C)c(Cl)c3N2)cc1 (stereo not drawn)
  ?	?
COCCSc1nc2c([nH]c3ccccc32)c(=O)n1-c1ccc(OC)c(OC)c1
  -27%	-16%
CCOC(=O)c1c(CN2CCCCC2)oc2ccc(OC)cc12
  ?	-14%
O=C(c1ccc2c(c1)OCO2)N1CCNc2ccccc2C1
  i	4%
COc1ccc(OC)c(NS(=O)(=O)c2ccc(Cl)nc2)c1
  -26%	-20%
Cc1c(C(=O)N(CCc2ccccc2)Cc2ccccc2)cccc1[N+](=O)[O-]
  -7%	-19%
Cc1ccc(Nc2cc(Cl)nc(N)n2)c([N+](=O)[O-])c1
  i	-4%
CN(CC(=O)Nc1ccccc1Cl)CC(=O)Nc1sc2c(c1C(N)=O)CCC2
  ?	-17%
NS(=O)(=O)c1ccc(CCNC(=O)CNC(=O)c2ccc(F)cc2)cc1
  -8%	3%
CCCCNc1nc(Oc2ccc(=O)n(-c3ccccc3)n2)nc(N(CC)CC)n1
  -22%	-22%
COc1ccc(NC(=O)CN(C)CCOc2ccc(Cl)cc2)cc1OC
  -21%	-14%
COc1cccc(Nc2sc(C(=O)c3ccc(Cl)cc3)c(N)c2C(=O)NCCc2ccc(OC)c(OC)c2)c1
  -20%	-11%
O=C(CSc1ncc(S(=O)(=O)c2ccccc2)c(=O)[nH]1)Nc1ccccc1Cl
  i	-5%
COc1cc(NC(=O)Cn2nnc(-c3ccccc3N)n2)cc(OC)c1
  -13%	-18%

Reformatted: results already given
Molecule: COc1ccc(NC(=O)CN(C)CCOc2ccc(Cl)cc2)cc1OC
  Vaccinia mCherry: -21% | Vaccinia Venus: -14%
Molecule: COc1cccc(Nc2sc(C(=O)c3ccc(Cl)cc3)c(N)c2C(=O)NCCc2ccc(OC)c(OC)c2)c1
  Vaccinia mCherry: -20% | Vaccinia Venus: -11%
Molecule: O=C(CSc1ncc(S(=O)(=O)c2ccccc2)c(=O)[nH]1)Nc1ccccc1Cl
  Vaccinia mCherry: i | Vaccinia Venus: -5%
Molecule: COc1cc(NC(=O)Cn2nnc(-c3ccccc3N)n2)cc(OC)c1
  Vaccinia mCherry: -13% | Vaccinia Venus: -18%

Further entries
Values in the order – Vaccinia mCherry	Vaccinia Venus
COC(=O)c1ccc(NC(=O)C2CC(=O)N(c3cc(C)ccc3C)C2)cc1 (stereo not drawn)
  /	?
CCn1c(C)cc(/C=C2\NC(=O)N(CC(=O)Nc3ccc(F)cc3)C2=O)c1C
  5%	6%
O=C(COC(=O)c1ccncc1)Nc1cccc(Cl)c1
  -8%	8%
CC(C)c1ccc(CN(C(=O)c2ccco2)C2CCS(=O)(=O)C2)cc1 (stereo not drawn)
  -14%	-6%
COc1ccc(CNC(=O)CSc2nnc3c(n2)[nH]c2ccc(F)cc23)cc1
  21%	3%
CC(=O)Nc1ccc(NC(=O)c2nc(S(=O)(=O)Cc3ccc(F)cc3)ncc2Cl)cc1
  -23%	-6%
COc1cc(N/C(=N/S(=O)(=O)c2ccccc2)c2ccccc2)ncn1
  -23%	-20%
COc1ccc(C2(CNC(=O)C(=O)Nc3ccccc3C)CCCC2)cc1OC
  -12%	-12%
Oc1ccccc1-c1nc(NCC2CCCO2)c2ccccc2n1 (stereo not drawn)
  -21%	-27%
Cc1cccc(NC(=S)Nc2cccc(C)n2)n1
  ?	-22%
C[C@H](NC(=O)[C@@H](N)Cc1ccc(O)cc1)C(=O)N[C@@H](Cc1ccccc1)C(=O)N[C@@H](Cc1ccccc1)C(N)=O
  i[3.33 µM]	-11%[3.33 µM]
CCOC(=O)c1c(NC(=O)c2nn(CC)cc2Br)c(C#N)nn1-c1ccccc1
  -16%	-8%
O=C(Nc1c2c(nn1-c1ccccc1)CS(=O)C2)c1ccc2c(c1)OCO2 (stereo not drawn)
  0%	3%
CCn1c(=O)n(-c2cccc(Cl)c2)c(=O)c2sc3ccccc3c21
  -3%	-6%
CCOCCn1c(CCCO)nc2ccccc21
  -10%	-3%
CN1C=CC=C/C1=C1\SC(=S)N(c2ccccc2)C1=O
  -8%	65%[activator]
COc1cccc(CN(C)C(=O)Cn2cc(C)c(=O)[nH]c2=O)c1
  -17%	1%
COc1ccc(S(=O)(=O)Nc2cccc(-c3ccc(N4CCC(C)CC4)nn3)c2)c(OC)c1
  -29%	?
CC1CCC(NC(=O)C2c3ccccc3C(=O)N2Cc2ccc3c(c2)OCO3)CC1 (stereo not drawn)
  -5%	-8%
Cc1ccc(-c2nc3ccc(C)cn3c2Cc2ccsc2)cc1
  18%	1%

Continuation:
Values in the order – Vaccinia mCherry	Vaccinia Venus
O=C(CN1C(=O)NC2(CCCC2)C1=O)Nc1ccc(F)c(Cl)c1
  -3%	-2%
CCC(=O)N1CCc2cc(S(=O)(=O)NCCC(=O)Nc3ccc(C)cc3C)ccc21
  -7%	-10%
COc1ccc(-c2nc3ccc(Br)cn3c2CC(=O)N2CCCC2)cc1OC
  i	5%
CC1(C)CC(=O)C/C(=N/NC(=O)c2ccc(-c3ccccc3)cc2)C1
  -29%	-6%
CC[C@@]1(c2ccccc2OC)ON(c2ccccc2C(F)(F)F)C1=O
  ?	?
Cc1ccc(-c2nnc(NC(=O)c3ccco3)s2)cc1
  i	3%
COc1cc(CNCCc2ccc(S(N)(=O)=O)cc2)ccc1OCC(=O)NC(C)(C)C
  -13%	-16%
Cn1c(=O)oc2cc(S(=O)(=O)N3CCCC(C(=O)NCCc4ccccc4)C3)ccc21 (stereo not drawn)
  -4%	-1%
Cc1ccc(N(C)S(=O)(=O)c2cc3c(cc2C)NC(=O)CO3)cc1
  ?	-9%
COCCNc1ncnc2c1ncn2[C@H]1CN(CCN2CCOCC2)C[C@@H](CO)O1
  -6%	-4%
O=S(=O)(/N=C(/Nc1cc(N2CCOCC2)ncn1)c1ccc(F)cc1)c1ccccc1
  -17%&-11%	3%&-11%
CCOC(=O)C(CCCP(=O)(c1ccccc1)c1ccccc1)(NC(C)=O)C(=O)OCC
  -6%	3%
C(=C\c1nc(-c2ccncc2)no1)/c1ccccc1
  -12%	-6%
COc1cc(C2C(C(=O)c3ccco3)=C(O)C(=O)N2c2cc(C)on2)cc(Br)c1O (stereo not drawn)
  i	-15%
O=C(CCCc1ccccc1)NC1CC(=O)N(c2cccc(F)c2)C1 (stereo not drawn)
  -11%	-10%
O=C(CC1SC(=Nc2ccccc2)N(CCCO)C1=O)Nc1ccc(Cl)cc1 (stereo not drawn)
  /	?
Cc1ccc(S(=O)(=O)Cn2nnnc2C(C(C)C)N2CCC(C(N)=O)CC2)cc1 (stereo not drawn)
  -10%	-1%
O=C(COc1ccc(S(=O)(=O)Nc2ccccc2)cc1)NCc1ccncc1
  -3%	-16%
COC(=O)c1ccc(N2C(=O)CC(N(C)Cc3ccccc3)C2=O)cc1 (stereo not drawn)
  /	-12%
COC(=O)[C@]1(Cc2ccccc2)N[C@H](CN(C)C(=O)Nc2ccc(C)cc2)[C@@H]2C(=O)N(C)C(=O)[C@@H]21
  -8%	-24%
COCCn1cnc2c1c(=O)n(CC(=O)c1ccc3c(c1)OCCO3)c(=O)n2Cc1ccccc1
  -3%	-3%
